Screens: PubChem, National Center for Advancing Translational Sciences (NCATS)
NPR1 antag: Natriuretic polypeptide receptor (hNpr1) antagonism - Primary qHTS | Atrial natriuretic peptide receptor 1 (Homo sapiens), P16066 | HEK293 hNpr1 GloSensor cGMP, ANP-stimulated luminescence | Potency, µM (top dose mostly 46.3 µM), for the others: top-dose activity change, negative = inhibition, actives largely listed as inhibitors | 76,000 compounds, 1.6% hits | AID 1347048, 2019; active = well fitted inhibition curve with a large enough effect; inconclusive = small, poorly fitted or top-dose-only effect; inactive = no such curve, though single readings can be large or run the other way;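 note: nearly all actives have a fitted effect of over 60% in size; nearly all hits also lower the signal before the agonist is added; a reference antagonist and vehicle were the controls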
Target sequence (P16066 whole entry, looked up): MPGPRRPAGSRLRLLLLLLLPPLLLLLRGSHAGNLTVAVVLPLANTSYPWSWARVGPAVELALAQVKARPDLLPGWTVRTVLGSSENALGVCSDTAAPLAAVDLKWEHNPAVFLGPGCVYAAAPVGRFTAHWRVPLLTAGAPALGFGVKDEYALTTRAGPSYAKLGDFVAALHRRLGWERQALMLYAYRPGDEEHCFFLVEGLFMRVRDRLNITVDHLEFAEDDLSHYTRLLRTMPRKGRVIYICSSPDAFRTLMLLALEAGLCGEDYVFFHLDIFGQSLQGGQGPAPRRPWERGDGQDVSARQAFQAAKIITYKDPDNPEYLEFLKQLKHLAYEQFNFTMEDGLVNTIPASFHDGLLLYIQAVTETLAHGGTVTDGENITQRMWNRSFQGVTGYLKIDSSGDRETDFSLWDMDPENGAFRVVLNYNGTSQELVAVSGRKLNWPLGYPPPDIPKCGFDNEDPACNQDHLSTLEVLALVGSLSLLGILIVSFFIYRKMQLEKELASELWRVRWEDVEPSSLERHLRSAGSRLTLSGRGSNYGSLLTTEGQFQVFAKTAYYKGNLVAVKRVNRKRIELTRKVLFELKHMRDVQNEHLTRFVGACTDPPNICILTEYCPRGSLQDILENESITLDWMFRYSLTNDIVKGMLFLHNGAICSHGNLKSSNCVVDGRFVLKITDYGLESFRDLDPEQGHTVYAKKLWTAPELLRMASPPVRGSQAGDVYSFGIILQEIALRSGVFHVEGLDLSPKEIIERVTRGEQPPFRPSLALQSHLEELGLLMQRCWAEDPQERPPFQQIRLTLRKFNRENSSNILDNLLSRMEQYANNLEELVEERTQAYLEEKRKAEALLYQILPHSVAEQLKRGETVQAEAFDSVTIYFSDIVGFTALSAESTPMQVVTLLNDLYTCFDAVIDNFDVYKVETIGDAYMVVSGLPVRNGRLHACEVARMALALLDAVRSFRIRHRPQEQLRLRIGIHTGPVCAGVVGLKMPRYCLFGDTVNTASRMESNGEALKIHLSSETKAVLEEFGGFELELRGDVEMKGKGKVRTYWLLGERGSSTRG
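Compound pre-incubated 30 min at room temperature on GloSensor-loaded HEK293 cells stably carrying hNpr1 and the pGS-40F cGMP biosensor. Stimulation uses hNppA at 0.1 nM final; luminescence is taken at baseline and 20 min post-agonist.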
An asterisk follows results filed as active; [ ] = remark or other dose. % is set by controls: 0 for no effect and ±100 for the full control effect; potency is the fitted concentration of half-maximal effect. A portion of the library, so the mix of outcomes need not match the whole.

For CSCC(=O)Nc1nc2c(s1)C[C@]1(C)CC[C@@H]3[C@H](OC(=O)[C@H]3C)[C@H]1[C@@H]2C the results were NPR1 antag 7.08µM*.
`COCc1nc(N(C)Cc2ccccc2)ncc1C(=O)O` gave NPR1 antag 2.7%.
`CC(C)c1nc2c(c(-c3ccc(O)cc3)n1)CN(Cc1ccc(F)cc1)CC2` gave NPR1 antag 2.2%.
`O=C(c1ccc(C(F)(F)F)cc1)N1CCC(N2CC3CC(C2)[C@H]2CCCC(=O)N2C3)CC1` (some centres undefined) gave NPR1 antag -3.2%.
`CCOCc1nc(C2CCCN(C(=O)c3ccco3)C2)no1` (centres undefined) gave NPR1 antag 0.0%.
`O=C1CC(c2ccccc2)N(C(=O)CCc2ccccc2)CCCCCCN1` (centres undefined) gave NPR1 antag -11.0%.
CCN(CC)C(=O)Cc1cccn1-c1cccc(Cl)c1 was read as NPR1 antag -3.5%.
`CCn1ncc(C(=O)N[C@@H]2CN(c3ncccn3)C[C@H]2CO)c1C` gave NPR1 antag -13.9%.
COCc1noc([C@@H]2CN(S(=O)(=O)Cc3ccc(F)cc3)C[C@H]2C(N)=O)n1 was read as NPR1 antag -1.3%.
Screening Cc1cc(-c2cccc(COc3ccc4c(cnn4CC[S+](C)(=O)[O-])c3)c2)ccn1 returned NPR1 antag 10µM*.
`COc1ccc(CNC(=O)c2ccc(Cn3ccn4nc5c(c4c3=O)CCCC5)cc2)cc1` gave NPR1 antag 11.2µM*.
`O=C(O)c1ccc(CC2CCN(Cc3ccncc3)C2)cc1` (centres undefined) gave NPR1 antag 1.2%.

The closing 6 entries of the part above are carried over, then new ones follow.
CCN(CC)C(=O)Cc1cccn1-c1cccc(Cl)c1 was read as NPR1 antag -3.5%.
`CCn1ncc(C(=O)N[C@@H]2CN(c3ncccn3)C[C@H]2CO)c1C` gave NPR1 antag -13.9%.
COCc1noc([C@@H]2CN(S(=O)(=O)Cc3ccc(F)cc3)C[C@H]2C(N)=O)n1 was read as NPR1 antag -1.3%.
Screening Cc1cc(-c2cccc(COc3ccc4c(cnn4CC[S+](C)(=O)[O-])c3)c2)ccn1 returned NPR1 antag 10µM*.
`COc1ccc(CNC(=O)c2ccc(Cn3ccn4nc5c(c4c3=O)CCCC5)cc2)cc1` gave NPR1 antag 11.2µM*.
`O=C(O)c1ccc(CC2CCN(Cc3ccncc3)C2)cc1` (centres undefined) gave NPR1 antag 1.2%.
CCCCN1CCN(C(=O)C2(c3ccc(NS(C)(=O)=O)cc3)CCCCC2)CC1 was read as NPR1 antag 2.1%.
`Cc1ccc(NC(=O)Cn2c(-c3ccccc3)nc(C)c(CCO)c2=O)cc1Cl` gave NPR1 antag -15.2%.
Screening CCNC(=O)c1cccc2c1CCN2S(=O)(=O)c1cccc(C)c1 returned NPR1 antag -27.9%.
Screening O=C(c1ccc(F)cc1Cl)N1CCN(c2cc(-c3ccc(F)cc3)[nH]n2)CC1 returned NPR1 antag 11.2µM*.
For COc1ccc(NC(=O)Nc2ccc(C)n(CC(=O)O)c2=O)cc1 the results were NPR1 antag -3.8%.
`CCn1nc(C(C)C)cc1C(=O)N1CCN(C)C2(CCC(=O)N(C)CC2)C1` (centres undefined) gave NPR1 antag 4.8%.
Screening COc1ccc(C(=O)N2CCC3(CC2)OCC(C(=O)NC2CC2)N3C(=O)c2ccc(F)cc2)cc1 (centres undefined) returned NPR1 antag -6.3%.
For O=C(N[C@@H]1CN(C(=O)Nc2ccc(OC(F)(F)F)cc2)CCC[C@H]1O)c1ccc(OCCN2CCOCC2)cc1 the results were NPR1 antag -2.0%.
For CC(NC(=O)c1cc(S(N)(=O)=O)ccc1F)c1ccc2c(c1)OCCCO2 (centres undefined) the results were NPR1 antag 6.1%.
`O=C(c1cccc2c1NCCC2)N1CCn2nc(C(O)C3CC3)cc2C1` (centres undefined) gave NPR1 antag -2.5%.
`NC(=O)[C@@H]1CN(C(=O)c2cncnc2)C[C@H]1COc1ccccc1` gave NPR1 antag 6.8%.
Screening Cc1ccnn1CCC(=O)N1CC[C@H](N2CCN(C)CC2)[C@H](CCC(=O)O)C1 returned NPR1 antag -1.7%.
Screening COCCN1C(=O)C(CC(N)=O)=C2CCCCC21 (centres undefined) returned NPR1 antag 1.9%.
`Cn1c(C(=O)NC(C)(C)C)cc2c1CCN(Cc1cccc(F)c1)C2` gave NPR1 antag 0.8%.
`COCc1ccc2c(c1)c(OC(C)(C)C(=O)NCC[S+](C)(=O)[O-])nn2Cc1cccnc1` gave NPR1 antag -1.3%.
For CCc1nc(-c2c3n(c(=O)n(CC(=O)Nc4cc(F)ccc4F)c2=O)CCCCC3)no1 the results were NPR1 antag 0.8%.
`Cc1ccc(C)c(C(=O)NCc2nnc3c(-c4nc(C(C)C)no4)cccn23)c1` gave NPR1 antag -2.4%.
`COCCNC(=O)c1ccc2c(c1)N(C)C(CC(=O)Nc1ccccc1)CO2` (centres undefined) gave NPR1 antag 2.2%.
For COc1ccccc1CNC(=O)[C@@H](C)C1CC[C@@]2(C)CC[C@H](NC(=O)c3cncnc3)[C@@H](C)[C@@H]2[C@H]1O (some centres undefined) the results were NPR1 antag 7.4%.
`CO[C@H]1C(=O)N(C2CCN(C(=O)c3cccc4[nH]ccc34)CC2)[C@H]1c1ccncc1` gave NPR1 antag 5.1%.
COc1ncccc1-c1nc(N2CCOCC2)cc2c1CN(CC(F)(F)F)C2=O was read as NPR1 antag 2.3%[70.6 µM].
For COc1ccc(OCc2nc(C(=O)N3CCC4(CCCN(C)C4=O)C3)co2)cc1 (centres undefined) the results were NPR1 antag -2.4%.
CC1CCC2(CC1)NC(=O)N(CC(=O)NCCc1ccc(Cl)cc1)C2=O (centres undefined) was read as NPR1 antag 9.8%.
Cc1ccc(C(=O)NC(C(=O)N2CCCC2)C2CCN(C(=O)CC(C)C)CC2)cc1 (centres undefined) was read as NPR1 antag -1.2%.
Screening Cc1ccc(OCCC2CCN(C(=O)Cc3cccnc3)C2)cc1 (centres undefined) returned NPR1 antag inconclusive.
`C[C@@H]1CN(C(=O)c2cccc(N3CCNC3=O)c2)C[C@@]1(O)C1CC1` gave NPR1 antag 0.7%.
O=S(=O)(c1cccs1)N1CCCC2(C1)Nc1cccnc1NC2=NC1CCCC1 (centres undefined) was read as NPR1 antag -2.8%.
`CNC(=O)[C@H]1C[C@H](Oc2cccnc2)CN1C(=O)Nc1ccccc1` gave NPR1 antag -2.7%.
CC[C@H]1CN(Cc2ccc(OC)cc2O)CC[C@H]1CC(=O)N1CCOCC1 was read as NPR1 antag -0.7%[70.6 µM].
`Cc1ccc(Oc2ncccc2CNC(=O)C2CCc3ccccc32)cn1` (centres undefined) gave NPR1 antag 0.3%.
O=C(Nc1cnc(-c2cccc(Cl)c2)nc1)c1cc(F)cc(F)c1 was read as NPR1 antag -23.3%.
Screening COc1ccc(F)cc1S(=O)(=O)N1C[C@@H](F)C[C@H]1C(=O)N1CCc2ccccc2C1 returned NPR1 antag -8.4%.
For CCOc1cc(=O)n2c(c1C(=O)Nc1ccccc1)CCCC2 the results were NPR1 antag -0.3%.
For CCCCN(CC#Cc1ccccc1)C(=O)c1cc(=O)n(C)c(=O)n1C the results were NPR1 antag 0.2%.
For COc1ccc(-c2nc(C)nc3c2CN([S+](=O)([O-])c2onc(C)c2C)CC3)cc1 the results were NPR1 antag 0.0%.
Screening Cn1c(Cn2ccnc2)nnc1C1CCCN(C(=O)Nc2ccccc2F)C1 (centres undefined) returned NPR1 antag 9.7%.

2 compounds picked at random from those above, as already listed:
Screening Cc1ccc(OCCC2CCN(C(=O)Cc3cccnc3)C2)cc1 (centres undefined) returned NPR1 antag inconclusive.
For CCOc1cc(=O)n2c(c1C(=O)Nc1ccccc1)CCCC2 the results were NPR1 antag -0.3%.

The list goes on.
COc1ccc(C(=O)N2CCC3(CC2)N(C)C(=O)CS3(=O)=O)cc1 was read as NPR1 antag 3.6%.
COCCNC(=O)[C@@H]1CCC[C@@H](NC(=O)c2cc(C)n(C)n2)CN(C)C(=O)C1 was read as NPR1 antag -3.6%[70.6 µM].
Cc1noc(C)c1[S+](=O)([O-])NC1CCCN(c2nc3ncccc3o2)C1 (centres undefined) was read as NPR1 antag 2.8%.
Screening Cc1cccn2c(CC(=O)NCC3CCN(c4cnn(C)c(=O)c4)C3)cnc12 (centres undefined) returned NPR1 antag -0.4%.
For Cn1cccc1CN1CCC2(C1)C(=O)Nc1ccccc12 (centres undefined) the results were NPR1 antag 5.6%[70.6 µM].
CCCCN(CC)C(=O)Cn1ccn2nc3c(c2c1=O)CCCC3 was read as NPR1 antag 1.8%.
CN1CCN(c2cc(=O)c3ccnc(Nc4ccc(F)c(Cl)c4)c3o2)CC1 was read as NPR1 antag 1.9%[70.6 µM].
For C[C@]1(CO)[C@H]2Cc3sc(NC(=O)c4ccco4)nc3[C@@H](CC(=O)NCCN3CCOCC3)[C@]2(C)CC[C@H]1O the results were NPR1 antag 4.0%.
For Cc1ccc(S(=O)(=O)NC[C@H]2OC[C@@H](NCc3nccn3C)[C@@H]2O)cc1 the results were NPR1 antag 2.6%[70.6 µM].
For Cc1ccccc1OCC(=O)NCc1nnc2c(-c3nc(C4CC4)no3)cccn12 the results were NPR1 antag 3.0%.
For COC(=O)[C@@H]1Cc2c([nH]c3ccccc23)[C@H]2C[C@@H](NCCc3cnc[nH]3)C[C@@H](c3cccc(Cl)c3)N21 the results were NPR1 antag 0.0%.
Screening CCOc1ccccc1-n1c(Cc2ccc(O)cc2)n[nH]c1=O returned NPR1 antag 0.6%.
For N#Cc1cccnc1N1CCCC(CO)(Cc2ccc(F)cc2F)C1 (centres undefined) the results were NPR1 antag -2.9%.
COc1ncccc1-c1ncc2c(n1)OCCN(c1cccc(C(F)(F)F)c1)C2=O was read as NPR1 antag 1.4%[70.6 µM].
`O=C(CN1CCOCC1)N1CCC(N2C(=O)C3(CCCCC3)C2c2ccccc2)CC1` (centres undefined) gave NPR1 antag 10.7%.
`CC1(COc2ccccc2)COc2ccc(C(=O)Nc3ccccc3)cc2N1` (centres undefined) gave NPR1 antag -6.4%[70.6 µM].
Screening CCCCn1c(C(C)NC(=O)OCc2ccccc2)nc2cccnc21 (centres undefined) returned NPR1 antag -2.4%.
Cc1ccc(CC(=O)N2CCC(n3cc(-c4nc(C)no4)nn3)CC2)cc1 was read as NPR1 antag -8.9%.
`CCOC(=O)c1ccc(NC(=O)Cn2nc3n(c2=O)CCCC3)cc1` gave NPR1 antag 0.8%.
CCn1nccc1C(=O)N1c2ccccc2CC1c1nnc(C2CC2)o1 (centres undefined) was read as NPR1 antag 0.7%.
C[S+](=O)([O-])Nc1cccc(Nc2cnc3ccc(-c4ccc(F)cc4)nn23)c1 was read as NPR1 antag -20.8%[70.6 µM].
`COc1ccc(CCNC(=O)c2ccc(N3CC4CC(C3)[C@H]3CCCC(=O)N3C4)nc2)cc1OC` (some centres undefined) gave NPR1 antag 0.6%.
`COc1ccccc1C(=O)N1CCC2(CC1)CN[S+](=O)([O-])c1ccccc1N2` gave NPR1 antag 2.9%.
Screening Cc1onc(-c2ccccc2)c1C(=O)NC1CCOC2(CCOCC2)C1 (centres undefined) returned NPR1 antag 1.7%.
`O=C(C1CCCCC1)N1C[C@@H](CO)[C@H](c2ccncc2)C1` gave NPR1 antag -3.8%.
For COc1ccc(Nc2ncncc2-c2nc(-c3ccccc3)no2)cc1 the results were NPR1 antag -3.8%.
CC(C)[C@H](NC(=O)Cn1nc2c(cc1=O)CCCCC2)C(=O)O was read as NPR1 antag 5.0%.
COc1ccc2[nH]c3c(c2c1)CCNC31CCN(C(=O)Cc2cccc(F)c2)CC1 was read as NPR1 antag -4.1%.
`NCCCN1C(=O)CC[C@H]2CN(C(=O)c3cnn4ccccc34)CC[C@H]21` gave NPR1 antag -3.1%.
For CCOc1ccccc1OCCN(C)C(=O)c1cccnc1SC the results were NPR1 antag -0.8%.
Screening CCc1ocnc1C(=O)N1CCC(c2nnc(Cn3cncn3)n2C)CC1 returned NPR1 antag 2.4%.
For C[C@H]1CN(C(=O)Nc2ccc(F)cc2)C[C@@H]1c1nc(-c2ccccc2)no1 the results were NPR1 antag 0.0%.
CCc1noc(-c2cccn3c(CNC(=O)c4cccnc4)nnc23)n1 was read as NPR1 antag 4.2%.
For CC(C)c1ccccc1NC(=O)Cn1ccn2nc(-c3ccccc3)c(CO)c2c1=O the results were NPR1 antag -0.6%.
O=C(c1ccccn1)N1CCC(c2nc(-c3cccnn3)no2)CC1 was read as NPR1 antag 2.1%.
For O=C1[C@@H]2C[C@@H](O)CN2C2(CN(C3CCC3)C2)C(=O)N1Cc1ccccc1 the results were NPR1 antag 3.1%[70.6 µM].

Part of the list above in order of formula weight, falling:
COc1ccc2[nH]c3c(c2c1)CCNC31CCN(C(=O)Cc2cccc(F)c2)CC1 was read as NPR1 antag -4.1%.
O=C(c1ccccn1)N1CCC(c2nc(-c3cccnn3)no2)CC1 was read as NPR1 antag 2.1%.
CC(C)[C@H](NC(=O)Cn1nc2c(cc1=O)CCCCC2)C(=O)O was read as NPR1 antag 5.0%.

The list goes on:
COc1ccc(-c2nc(C3CC(=O)N(c4ccc(C)cc4)C3)no2)cc1 (centres undefined) was read as NPR1 antag -13.6%.
COc1cccc(CN2C[C@@H]3C(C(=O)NCc4ccccc4)=NO[C@@H]3C2)c1 was read as NPR1 antag -2.3%[70.6 µM].
For COc1ccc2c(c1)nc1n2[C@@H](CNC(=O)c2ccc(Cl)cc2)COC1 the results were NPR1 antag -13.9%[70.6 µM].
`Cn1cnc(S(=O)(=O)N2CCC(N3C(=O)C(OCC4CC4)C34CCCCC4)CC2)c1` (centres undefined) gave NPR1 antag -5.6%.
`COc1ccc(C(=O)NCCn2ccn3nc(-c4cc(C)ccc4C)cc3c2=O)cc1F` gave NPR1 antag -23.6%.
